Screening data (PubChem BioAssay)
AID504770: growth inhibitors of E. coli YBA685 in a screen for V. cholerae RctB (chromosome II replication) inhibitors | E. coli YBA685 rctB-dependent plasmid, OD600 growth, 3 h; stronger effect = lower value | z-score (no concentration beside the values) | 130,000 tested, 0.27% active | AID 504770;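 active = z-score under -2 on both plates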;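 also: wells of about 30 µL received 100 nL stock; score is relative to mean and SD of the test wells; the first replicate is given; strong numbers were not always called active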
Ba CapD inh: CapD enzyme inhibition. purified CapD enzyme, fluorescence intensity read-out; stronger effect = lower value; some hits fall short of the stated cut. z-score (test concentration not listed). 140,000 tested, 0.23% active. AID 492967;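 active = z-score under -4 in either of two replicates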;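 also: stock transfer was 100 nL into about 40 µL; score is relative to mean and spread of the plate; one replicate is shown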
* hit, by the source's call; . = no result given; & = joins results of further samples.

SMILES,AID504770,Ba CapD inh
O=C(CSCC(=O)Nc1ccc2nc(SCC(=O)N3CCOCC3)sc2c1)Nc1ccccc1,.,0.69
O=c1c(-c2ccc3c(c2)OCCO3)c(C(F)(F)F)oc2cc(O)ccc12,-0.75,-0.52
CCC(=O)Nc1ccc2c(c1)C(=O)OC2,0.05,.
COc1cc(-n2cnc3cc(C(=O)NCC(OC)OC)ccc32)cc(OC)c1OC,.,-0.51
O=C(O)C1CSC(c2cccs2)N1 (configuration not stated),-0.4,.
CN(Cc1cccnc1)C(=O)CNC(=O)c1ccc(Cl)cc1Cl,0.4,.
Cc1ccc2oc(-c3ccc(Cl)cc3)cc(=O)c2c1,-0.3,0.32
CCOC(=O)c1cn[nH]c1C(F)(F)F,.,-0.6
Cc1ccc(C)n1-c1ccc(-c2ccn[nH]2)cc1,-0.4,-0.015
CC1CC2(C)Oc3ccccc3C3OCC1(COC(=O)Nc1ccccc1)C(C)C32 (configuration not stated),.,-0.99

A draw from above in order of molecular weight, falling.
SMILES,AID504770,Ba CapD inh
O=C(CSCC(=O)Nc1ccc2nc(SCC(=O)N3CCOCC3)sc2c1)Nc1ccccc1,.,0.69
CN(Cc1cccnc1)C(=O)CNC(=O)c1ccc(Cl)cc1Cl,0.4,.
Cc1ccc2oc(-c3ccc(Cl)cc3)cc(=O)c2c1,-0.3,0.32

The list continues:
SMILES,AID504770,Ba CapD inh
O=S1(=O)CC2SC(=S)N(c3cccc(Br)c3)C2C1 (configuration not stated),2.35,.
C=CCNc1nc(Nc2ccc(Cl)cc2)nc(N2CCOCC2)n1,.,-0.35
COC(=O)CN1C(=O)C2(C(C#N)=C(N)Oc3n[nH]c(-c4cc(OC)c(OC)c(OC)c4)c32)c2ccccc21 (configuration not stated),.,-0.3
N#CCSc1nc2ccc(Br)cc2c2nc3ccccc3n12,.,0.42
CCN1CCN(CCN)CC1,-0.25,.
C=CCN1C(=O)/C(=C\c2ccc(O)c(OC)c2)C(=O)NC1=S,-0.9,-0.605
Cc1ccc(N2C(=O)NC(=O)/C(=C\c3cc4c(cc3Br)OCO4)C2=O)cc1,.,0.39
Cc1cc2nn(CN3CCCC(C)C3)c(=S)n2c2ccccc12 (configuration not stated),-0.8,.
CCOCCn1cnc2sc(C(=O)N3CCC(C(=O)OCC)CC3)c(C)c2c1=O,.,6.03
C1CCC(OCC2CCCN3CCCCC23)CC1 (configuration not stated),1.6,0.235

The final two entries of the section above are carried over, then new ones follow.
SMILES,AID504770,Ba CapD inh
CCOCCn1cnc2sc(C(=O)N3CCC(C(=O)OCC)CC3)c(C)c2c1=O,.,6.03
C1CCC(OCC2CCCN3CCCCC23)CC1 (configuration not stated),1.6,0.235
O=C(O)CCCN1C(=O)S/C(=C\C=C\c2ccccc2)C1=O,-0.2,-2.58
Cc1cc2occ(CC(=O)OCC(=O)c3ccc4c(c3)NC(=O)CO4)c2cc1C,2.2,.
CCN(CC)C(=O)c1sc2ncnc(N3CCN(c4ccccc4F)CC3)c2c1C,.,-0.475
CC1CCCCN1C(=O)COC(=O)c1ccc2ccccc2n1 (configuration not stated),0.15,.
O=C(O)CN1C(=O)/C(=C\c2ccc(-c3ccc(I)cc3)o2)SC1=S,.,0.055
O=S(=O)(Nc1ccc2ccccc2n1)c1ccc2c(c1)CCO2,0.65,17.7
CCCCN(C)S(=O)(=O)c1ccc(-c2cc(C(F)(F)F)no2)s1,0.35,0.265
COC(=O)Nc1nc2ccc(C(=O)c3ccccc3)cc2[nH]1,-0.25&0.25,0.6&-0.305&-0.725
CCOC(=O)c1sc(N)c(C#N)c1COC(=O)Cc1n[nH]c(=O)c2ccccc12,0.25,.
COC(=O)c1nn(-c2ccccc2)nc1C,.,0.93
CC1CCCCC1NC(=O)c1ccc2ccccc2n1 (configuration not stated),0.6,.
COc1ccc(CCN(Cc2cc3cc(C)ccc3[nH]c2=O)C(=O)N2CCCC2)cc1OC,-0.45,.
C/C(=C\c1ccc(Cl)cc1)[N+](=O)[O-],.,-1.83
O=C(Nc1c[nH]c2ccccc12)NC1CCCC1,0.3,.
CC(C)(C)N=Cc1nc(-c2ccccc2)oc1O,0.55,-2.52
CC(=O)Nc1ccc(Br)cc1-c1nc2ccccc2[nH]c1=O,1.2,0.535
CC1(O)CS(=O)(=O)CC1(C)O (configuration not stated),-0.2,.
O=C(c1ccccc1[N+](=O)[O-])N1N=C(C(F)(F)F)CC1(O)C(F)(F)F (configuration not stated),.,-0.125
CN1C(=O)Cc2cc(S(=O)(=O)N3CCCCC3)ccc21,-0.4,.
C/C(=N\N1CCN(C2c3ccccc3-c3ccccc32)CC1)c1cccnc1,-0.65,-0.61
Cc1ccc(Nc2nc(N)nc(CN3CCN(C(=O)C4COc5ccccc5O4)CC3)n2)cc1 (configuration not stated),-0.15,.
Cn1ncc(CO)c1C(F)(F)F,0.85,0.97
CCOc1cc(CNc2ccc(N3CCOCC3)cc2)ccc1OCc1ccccc1,1.05,-0.625
N#CC(C#N)=C(c1ccccc1)c1ccccc1,-0.25,-0.96
N#CCCC1(CCC#N)c2ccccc2-c2nc3ccccc3cc21,.,7.09
Cc1ccc(S(=O)(=O)N2N=C3CCCCC3C2(O)C(F)(F)F)cc1 (configuration not stated),-1.05,-0.29
Cc1ccccc1OCC(=O)NC(C)C,2,-0.39
COC(=O)c1cc(=O)n2c(nc3cc(C(F)(F)F)ccc32)s1,-0.5,0.32
O=C(CSCCO)Nc1ccccc1,0.45,.
CCNC(=O)N(c1ccccc1)c1ccccc1,-1,0.855

(cont.)
Fields – AID504770, Ba CapD inh
> CCN(CC(=O)Nc1ccc(NC(C)=O)cc1)C(=O)C1CCCC1
  -1.95, .
> Cc1cccc(NC(=O)Cn2c(=O)oc3cc(S(=O)(=O)NCc4ccccc4)ccc32)c1C
  0.35, -0.18
> C=CCN1C(=O)NC(=O)/C(=C\c2cn(Cc3ccccc3)c3ccccc23)C1=O
  0.25, -0.055
> Cc1ccc(C(=O)c2ccccc2C(=O)O)cc1
  ., 0.28
> COc1cc(C(=O)Oc2ccc3c(c2)OCC3=O)cc(OC)c1OC
  0.05, 9.64
> Cc1ccn2c(C(=O)CSc3cccc(C(F)(F)F)c3)c(C)nc2c1
  ., -1.22
> O=CNC(=O)c1ccccc1C(=O)O
  0.2, 0.05
> NC(=O)N/N=C1\CCc2ccccc21
  0.05, 0.495
> CN(C)CCn1c(=S)[nH]c2ccccc2c1=O
  -0.6, .
> N#CC(C#N)=C1C=C(c2ccccc2)Sc2ccccc21
  0.9, 0.065
> Cc1cccc(C(=O)NCCC(=O)N2CCc3ccccc3C2)c1
  -0.4, .
> COc1ccc2c(c1)NC(c1ccccc1)c1cccn1-2 (configuration not stated)
  -0.35, 9.04
> CC1=C(C(=O)OC2CCCC2)C(c2coc3ccc(C)cc3c2=O)C2=C(CC(c3ccco3)CC2=O)N1 (configuration not stated)
  0, 1.06
> Cc1nnc(SC(C)C(=O)N(C)C2CCCCC2)n1N (configuration not stated)
  -0.3, .
> Brc1ccc(-c2nnc3sc(CN4CCc5ccccc54)cn23)cc1
  -0.95, .
> O=C(Nc1cccc(-c2nn[nH]n2)c1)c1cccc(C(F)(F)F)c1
  1.15, -0.71
> Cn1ccsc1=NC(=O)c1ccc(OC(F)(F)F)cc1
  0.4, .
> Cc1ccc2oc(=O)ccc2c1
  -0.65, 2.88
> COc1ccc(Br)cc1C1SCCN1S(=O)(=O)c1ccc(Cl)c(Cl)c1 (configuration not stated)
  0.2, -0.27
> COc1ccccc1/C=N/NC(=O)c1cc2ccccc2s1
  ., 5.62
> CCOC(=O)N1CCC(NS(=O)(=O)c2ccc(C#N)cc2)CC1
  -1.1, 0.655
> C=CCC1(CC=C)CCCCN1
  -0.65, 0.155
> N#CC1(C#N)C2CCCCC23OC(=N)C1(C#N)C(Cc1ccccc1)O3 (configuration not stated)
  -0.1, 1.19
> O=C(O)COc1ccc(Br)cc1CO
  1.2, 0.71
> CCN1C(=O)C(=C2C=C(C)N(CCO)C(C)=C2)C(=O)N(CC)C1=S
  0, .
> Cc1cccc(NC(=O)C23CCC(C)(C(=O)O2)C3(C)C)c1 (configuration not stated)
  -0.55, -0.445
> O=S1(=O)c2ccccc2S(=O)(=O)N1c1ccc(Oc2ccc(Cl)cc2)cc1
  ., -0.1
> Cn1ccnc1SCC(=O)Nc1ccc(C#N)cc1
  0.15, 0.285
> COc1ccc(NC(=O)C2CC(=O)N(C)C(=Nc3cccc(C(F)(F)F)c3)S2)cc1 (configuration not stated)
  ., 0.015
> CCNc1cc(N2CCC3(CC2)OCCO3)c2noc3c2c1C(=O)c1ccccc1-3
  2.35, -1.41
> CC(=O)NC12CC3CC(C1)CC(C(=O)OCC(=O)N1CCC(c4ccccc4)=N1)(C3)C2
  1.05, .
> Clc1ccc(OCCCN2CCN(c3cccc4[nH]ccc34)CC2)cc1
  0.2, -0.18
> CC(=O)OC[C@H]1O[C@@H](O[C@H]2[C@H](OC(C)=O)[C@@H](OC(C)=O)[C@H](OC(C)=O)O[C@@H]2COC(C)=O)[C@H](OC(C)=O)[C@@H](OC(C)=O)[C@@H]1OC(C)=O
  ., 0.155
> O=C(CCc1nc2ccccc2s1)OCc1ccccc1
  0.2, 0.015
> COc1ccc(NC(=O)CCS(=O)(=O)c2ccc3c(c2)CCN3C(C)=O)cc1
  -0.1, -0.115
> CCCN(C(=O)c1cc2cc3ccc(OC)cc3nc2s1)c1ccc(CC)cc1
  -0.25, 0.21
> CC(C)CCNS(=O)(=O)c1ccc2[nH]c3nc4nc(-c5ccc(Br)cc5)cn4nc3c2c1
  ., 0.75
> COc1ccc(N2CCN(S(=O)(=O)c3ccc(-n4[nH]c(=O)c5ccccc5c4=O)cc3)CC2)cc1
  -0.8, -0.415
> Cc1cc(C)n(C(=O)Cc2cccs2)n1
  1.4, -0.705
> O=C(O)/C(=C/c1ccc(F)cc1)c1cccs1
  -1.35, -0.655
> CCCCC(NC(C)=O)C(=O)N1CCC(C(O)(c2ccccc2)c2ccccc2)CC1 (configuration not stated)
  ., 0.35
> CC1CCC(N(C)C(=O)COC(=O)c2ccc(-n3cncn3)cc2)CC1 (configuration not stated)
  0.45, .
> O=C(Nc1ccc(Cl)cc1)OCc1cn(-c2ccccc2)nn1
  0.7, 0.28
> O=C(Oc1c(Br)cc(Br)c2cccnc12)N1CCOCC1
  0, 0.125
> CCCNC(=O)Cc1c(C)nc2cc(-c3ccccc3)nn2c1C
  -0.6, 63.5
> Cc1nn(-c2cccc(Cl)c2)nc1C(=O)NC1CCCCCC1
  0, .
> O=C(O)C(O)c1ccc(F)cc1 (configuration not stated)
  -0.25, .
> N#C/C(=C(\OCc1nnc(-c2ccccc2)o1)C(F)(F)F)c1nnc2n1CCCCC2
  0.7, .
> CC(C)CCOC(=O)C1(C(=O)OCCC(C)C)CC2(COC(c3ccccc3)OC2)C1
  ., 0.41
> CCCC(=O)Nc1ccc(N2CCCCC2C)cc1 (configuration not stated)
  -0.1, 0.105
> Cc1c(C(=O)N(C)C2CCCCC2)sc2nc(-c3ccccc3)cn12
  -0.65, 0.805
> COc1ccc(C(=O)N(c2ccc(OC)cc2)S(=O)(=O)c2ccc(C)cc2)cc1
  0.15, -0.65
> CC(=O)NC1C(=O)Nc2ccc(F)cc21 (configuration not stated)
  -0.8, 0.37
> Cc1ccc(NC(=O)CC(NCC2CCCO2)C(=O)O)cc1 (configuration not stated)
  0.95, 3.73
> COc1ccc2c(c1)C(C)=CC(C)(C)N2C(=O)Cn1cnc2c(cnn2-c2ccccc2)c1=O
  -0.15, .
> c1ccc2oc(SCc3cn4ccsc4n3)nc2c1
  -0.9, 0.045
> CSc1nc(N)nc(-c2cnccn2)n1
  ., -0.365
> Cc1ccc(S(=O)(=O)NC(CC(=O)NC2CCCC2)c2ccco2)cc1 (configuration not stated)
  0.95, -0.515
> C=CCn1c(C)nnc1SCCN1C(=O)c2ccccc2S1(=O)=O
  0.1, .
> Cc1ccccc1NC(=O)c1cnn2c(C(F)(F)F)cc(-c3ccco3)nc12
  -0.6, -0.035

Continued:
Fields – AID504770, Ba CapD inh
> O=C(CS(=O)(=O)c1cn(Cc2cccc(F)c2)c2ccccc12)NC1CCCCC1
  -1.25, -0.285
> O=C1CC(c2ccccc2)CC2=C1C(c1cc(Br)ccc1F)Nc1ccccc1N2 (configuration not stated)
  ., 0.7
> Cc1ccc(-c2csc(NC(=O)CCNC(=O)c3ccco3)n2)cc1
  -0.5, .
> O=C(O)CC(c1ccccc1)c1ccco1 (configuration not stated)
  0, 0.56
> O=C(OCC(=O)N1CCCC1)c1ccc(-c2ccc(C(=O)OCC(=O)N3CCCC3)s2)s1
  0.65, .
> O=C(NCC1CCN(Cc2cccc(Cl)c2)CC1)Nc1ccc2c(c1)OCCO2
  -0.15, -0.09
> COc1cc(NC(=O)c2nn3c(c2Cl)NC(c2cccs2)CC3C(F)(F)F)cc([N+](=O)[O-])c1 (configuration not stated)
  ., 0.015
> C[n+]1cc2c3c(ccc2c2ccc4cc5c(cc4c21)OCO5)OCO3
  0.5, 3.38&-0.21
> CC1CCC(C(C)C)C(OCC(O)CN2CCN(Cc3ccccc3)CC2)C1 (configuration not stated)
  -0.55, 0.31
> O=C(NCc1ccco1)c1ccccc1NS(=O)(=O)c1ccc(F)cc1
  -0.8, 6.12
> CN1CCN(c2ncnc3c2cnn3Cc2ccc(Cl)cc2)CC1
  0.05, 0.36

Single records (already shown). Screens in order: AID504770 | Ba CapD inh
CC1CCC(C(C)C)C(OCC(O)CN2CCN(Cc3ccccc3)CC2)C1 (configuration not stated) reads -0.55 | 0.31
O=C(O)CC(c1ccccc1)c1ccco1 (configuration not stated) reads 0 | 0.56
O=C(NCc1ccco1)c1ccccc1NS(=O)(=O)c1ccc(F)cc1 reads -0.8 | 6.12
C[n+]1cc2c3c(ccc2c2ccc4cc5c(cc4c21)OCO5)OCO3 reads 0.5 | 3.38&-0.21
O=C(OCC(=O)N1CCCC1)c1ccc(-c2ccc(C(=O)OCC(=O)N3CCCC3)s2)s1 reads 0.65 | .
